Menin MLL FP FL – qHTS Assay for Inhibitors Targeting the Menin-MLL Interaction in MLL Related Leukemias: Competition With Fluorescein Labeled MLL-derived Peptide | Fluorescence polarization, fluorescein-MLL peptide displacement from menin | FP activity change, % at 61.4 µM | 290,000 tested, under 10 active; inconclusive = falling polarisation curve, or a change in total fluorescence; inactive = total fluorescence flat and polarisation flat or rising; no compound was filed as active; the % refers to the polarisation; negative = inhibition;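 further: % of control where 0% means no effect; inhibitors lower the polarisation; unlabelled MLL peptide was the positive control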
Sfp inh – qHTS Assay for Inhibitors of Bacillus subtilis Sfp phosphopantetheinyl transferase (PPTase); 4'-phosphopantetheinyl transferase ffp (Bacillus subtilis), Q9F4F7; Biochemical Sfp PPTase activity, qHTS; Potency, µM, inactives show max response, negative = inhibition, most hits filed as inhibitors; hit rate 3.5% among 310,000; active means well fitted inhibition curve with a large enough effect; inconclusive means small, poorly fitted or top-dose-only effect, or another doubt; inactive means no such curve, though single readings can be large or run the other way;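 further: the enzyme is Sfp with the accession as filed and its product quenches rhodamine fluorescence; potency means the concentration at half of the fitted maximal effect; 0% = enzyme reaction without inhibitor and -100% = no enzyme wells; top concentration of the series not given in the record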
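Buffer: 50 mM Hepes-Na pH 7.6, 10 mM MgCl2, 0.01% Nonidet P-40, 0.01% BSA. Enzyme 15 nM, pre-exposed to compound 15 min; substrates then added and fluorescence change tracked over 30 min.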
TRPV1 PAM – HTS Assay for Compounds that Act as Potentiators of the Vanilloid Receptor 1; hit rate 0.02% among 320,000; TRPV1-expressing cells, Fluo-8 calcium influx, capsaicin EC20 potentiation; host cell line not named in the record; control for the full effect not named in the record; potentiation, % at 8.33 µM; active means potentiation above 80%; inconclusive means 30% to 80%; inactive means below 30%; further: 0% is about no effect
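Cells expressing TRPV1 were dye-loaded with Fluo-8 and read kinetically: 10 s baseline, 3 min after compound (agonist portion), then 2 min after EC20 capsaicin (allosteric enhancer portion). Calcium-bound dye fluorescence at 480/520 nm.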
gsp antag – qHTS for Antagonists of gsp, the Etiologic Mutation Responsible for Fibrous Dysplasia/McCune-Albright Syndrome: qHTS. Potency, µM (series often up to 76.9 µM), without a hit: top-dose activity change, negative = inhibition, most hits filed as inhibitors. hit rate 0.4% among 340,000. gsp-mutant cells, cAMP HTRF, 30 min; control for the full effect not named in the record; active = falling curve of any shape with a large fitted effect; inconclusive = falling curve, mostly with a smaller effect; inactive = flat or rising curve; cell line not stated here;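 further: intracellular cAMP measured with PDE inhibitor Ro 20-1724 present during compound exposure; potency means the concentration at half of the fitted maximal effect; on the % scale 0 is the no-effect control and ±100 the full control effect; nearly all actives have a fitted effect of over 65% in size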
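HTRF cAMP measurement after 30 min RT detection following 30 min, 37C compound treatment alongside […] (added as 300 uM solution) in G418-selected cells seeded at 2000/well and grown 16–24 h.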
ClpP mod – qHTS Assay for Activators of ClpP. purified B. subtilis ClpP, FRET peptide cleavage, 20 min. Potency, µM (titrated, usually from 57.5 µM), without a hit: at the highest dose activity change, negative = active. hit rate 1.9% among 340,000. AID 651965, 2013; active = well fitted falling curve with a large enough effect; inconclusive = small, poorly fitted or top-dose-only effect; inactive = no such curve, though single readings can be large or run the other way; further: potency means the concentration at half of the fitted maximal effect; the source files actives as falling curves though it sought activators and does not explain the sign; nearly all actives have a fitted effect of over 65% in size; many hits overshoot -100%
Target sequence (P80244 whole entry, looked up): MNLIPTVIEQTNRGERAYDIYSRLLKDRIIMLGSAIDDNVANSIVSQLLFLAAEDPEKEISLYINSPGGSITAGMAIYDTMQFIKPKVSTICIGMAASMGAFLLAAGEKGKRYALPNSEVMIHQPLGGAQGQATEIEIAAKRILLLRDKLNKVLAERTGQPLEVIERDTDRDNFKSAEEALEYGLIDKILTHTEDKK
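Buffer: 100 mM Tris/HCl pH8, 100 mM KCl, 0.05% low protease BSA, 2.5% glycerol, 0.01% Tween-20. ClpP 10 microg/mL final; 20 min RT; delta FRET normalized to ADEP and DMSO controls.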
gsp ag – qHTS for Agonist of gsp, the Etiologic Mutation Responsible for Fibrous Dysplasia/McCune-Albright Syndrome: qHTS | gsp mutant cells, cAMP HTRF, 30 min; control for the full effect not named in the record | Potency, µM (doses to about 76.9 µM), for the others: at the top dose activation (cAMP increase), hits mostly activators | hit rate 0.13% among 340,000 | AID 624287, 2012; active = well fitted activation curve with a large enough effect; inconclusive = small, poorly fitted or top-dose-only effect, or another doubt; inactive = no such curve, though single readings can be large or run the other way; cell line not stated here;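 further: phosphodiesterase inhibitor Ro 20-1724 added with compounds to block cAMP breakdown; potency means the concentration at half of the fitted maximal effect; nearly all actives have a fitted effect of over 60% in size; about a fifth of the inactives were tested at one dose only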
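Cells stably selected in G418 were plated at 2000/well, grown 16-24 hr, then given compounds in DMSO with the PDE inhibitor […] (300 uM solution added) for 30 min at 37C; cAMP was read by HTRF.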
TRPML1 inh – qHTS for Inhibitors of the Human Mucolipin Transient Receptor Potential 1 (TRPML1); hit rate 0.02% among 390,000; Mucolipin-1 (Homo sapiens), Q9GZU1; activity change, negative = inhibition, % (test concentration not listed); TRPML1-inducible cells, Ca2+ dye fluorescence, FDSS; stronger effect = lower value; inhibition of EC80 agonist-evoked calcium signal; AID 624415, 2012; in the data active means activity change below about -50%; inconclusive means about -30% to -50%; inactive means above about -30%;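 further: stimulus is agonist 54-4 at its EC80 concentration; on the % scale 0 is the no-effect control and ±100 the full control effect; compound concentration not given in the record; the text of the record puts the active cut at -80%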
Target sequence (Q9GZU1 whole entry, looked up): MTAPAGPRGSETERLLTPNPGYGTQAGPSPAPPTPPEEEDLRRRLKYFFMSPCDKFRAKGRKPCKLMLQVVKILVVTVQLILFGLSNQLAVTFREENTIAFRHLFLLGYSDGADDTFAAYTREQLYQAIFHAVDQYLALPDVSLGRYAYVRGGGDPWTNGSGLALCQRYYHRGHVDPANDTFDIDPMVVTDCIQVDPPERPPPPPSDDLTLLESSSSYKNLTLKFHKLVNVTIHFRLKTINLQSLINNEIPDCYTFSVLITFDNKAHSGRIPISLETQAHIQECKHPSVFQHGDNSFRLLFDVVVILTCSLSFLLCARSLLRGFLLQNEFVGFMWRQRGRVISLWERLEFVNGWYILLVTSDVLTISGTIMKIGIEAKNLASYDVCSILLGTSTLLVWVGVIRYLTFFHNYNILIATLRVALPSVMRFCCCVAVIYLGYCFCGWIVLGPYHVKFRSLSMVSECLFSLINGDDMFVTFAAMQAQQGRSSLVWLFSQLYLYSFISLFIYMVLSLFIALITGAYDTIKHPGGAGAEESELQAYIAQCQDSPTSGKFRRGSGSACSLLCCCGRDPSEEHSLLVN
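TRPML1-DL cells, Tet-induced overnight (~16 h, 37 °C) at 1,500 cells/well, were loaded with Ca8 no-wash dye plus quencher for 45-90 min at room temperature. Compounds were pinned during FDSS kinetic reading; agonist 54-4 at EC80 (4 uM final) then added.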
Starred values were filed as active, the others as inactive; ? = inconclusive; · = not tested or not shown; [ ] = another dose, or the depositor's remark.

Values run as follows: Menin MLL FP FL, Sfp inh, TRPV1 PAM, gsp antag, ClpP mod, gsp ag, TRPML1 inh
1: O=C(NCc1ccccc1F)C1CCCN1S(=O)(=O)c1ccc(F)cc1 (stereo not given)
→ -2.2, 12%, 6, 5%, -1.2%, -2%[15.4 µM], 1
2: CCOC(=O)N1CCN(C(=O)c2cccc(S(=O)(=O)Nc3ccc(Br)cc3)c2)CC1
→ ·, ·, -6, ?, -3.4%, 17%, -5
3: CS(=O)(=O)Nc1ccc(C2=NN(C(=O)C3CCCCC3)C(c3cccs3)C2)cc1 (stereo not given)
→ 6.1, -6%, -15, 25µM*, 35%, 10%[15.4 µM], 0
4: CC(C)Cc1nc2sc3c(=O)n(N)cnc3c2c2c1COC(C)(C)C2
→ -1.6, 19%, -6, 4%, -0.5%, -21%, 2
5: O=C(CSc1nncs1)Nc1cc(-c2ccccc2)nn1-c1ccccc1
→ 2.6, 26%, -1, -18%, 0.8%, -35%[inhibitor], -17
6: CSCC[C@H](NC(=O)[C@H]1CC[C@H](CNC(=O)[C@@H](N)Cc2ccccc2)CC1)C(=O)O
→ 3.5, -7%, 17, 11%, 0.4%, -21%, ·
7: CN(C)C1NC(=O)c2cc(-c3ccccc3)sc2N1 (stereo not given)
→ 1.0, -24%, 7, -13%, -0.7%, 2%, 14
8: O=C(Nc1ccc(Cl)c(S(=O)(=O)N2CCOCC2)c1)c1ccccn1
→ 3.1, -24%, -13, -4%, ·, 23%, 7
9: CC(=O)c1c(C)[nH]c(C(=O)Nc2ccc(N3CCCCCC3)cc2)c1C
→ ·, ·, ·, ·, -3.1%, -74%[inhibitor], 85
10: COc1ccc(-c2c(C#Cc3ccccc3)c3ccccc3n2C)cc1
→ -10, -21%, ?, -1%, 4.2%, ?, 3
11: COc1ccc(O)c(C(=O)CC(=O)c2ccc(F)cc2)c1
→ 3.3, 2%, 2, -24%, 117%, 6%, -6
12: COC(=O)c1ccc(NC(C)=O)o1
→ 0.1, 22%, -2, -3%, -5.7%, -51%, -9
13: O=C(/C(=C\c1ccccc1)c1nc2ccccc2[nH]1)c1ccc(Cl)cc1
→ 3.0, 4%, 6, -8%, -3.7%, -1%, -4
14: COc1ccccc1CNn1c(-c2cccc(C)c2)nc2ccccc2c1=O
→ 5.5, 13%, 28, ?, -1.2%, 8%, 12
15: CCCCC(CC)C(=O)N1CCN(C(=O)c2ccco2)CC1 (stereo not given)
→ 1.0, 7%, 6, 2%, -3.0%, 8%, 9
16: CCOC(=O)c1sc2nc(-c3ccco3)c3c(c2c1N)CC(C)(C)OC3
→ 16, 8.9µM*, -8, -13%, -7.0%, ?, 1
17: NC(=O)c1c(-c2ccc(Cl)cc2Cl)csc1NC(=O)Cc1ccccc1
→ 0.3, 2%, 0, 9%, 2.2%, 0%[15.4 µM], 13
18: CC[C@H](C)/C=C(C)/C=C/C(=O)Cc1cc(O)c(C)c(O)c1C=O
→ ?, 89µM*, -1, ?, -2.7%, ·, ·
19: CC(=O)Nc1ccc(NC(=O)CSc2ccc(-c3cccnc3)nn2)cc1
→ -1.6, 6%, 2, -2%, -3.3%, 5%, -15
20: O=C(CSC1=NS(=O)(=O)c2cc(F)ccc2N1)NCCc1ccccc1
→ ·, ·, 6, -12%, 1.9%, 6%, -8
21: Cc1ccc(OCCNC(=O)CN2C(=O)NC3(CCCC3)C2=O)cc1
→ ·, ·, -2, 7%, ·, 112%[15.4 µM], 4
22: COc1ccc(CNC(=O)[C@H](C)NC(=O)C2CCN(S(=O)(=O)c3ccc(F)cc3)CC2)cc1
→ 3.2, 12%, 5, 7%, -1.9%, 2%, 7
23: O=C(Nc1cccc(F)c1)Nc1ccc2c(c1)CCC2
→ ·, 10%, -8, 5%, -0.3%, ?, 44
24: CCOC(=O)C(C)Sc1ncc(OC)c(=O)[nH]1 (stereo not given)
→ 1.5, -9%, -8, 5%, 1.4%, 11%, 9
25: Cc1ccc(S(=O)(=O)N(Cc2cccc(C(F)(F)F)c2)C(=O)N2CCN(C)CC2)cc1
→ ·, ·, -16, 0%, -0.6%, -3%[15.4 µM], 14
26: Cc1nnc(NC(=O)C2CCN(S(=O)(=O)c3ccc(Cl)cc3)CC2)s1
→ -3.9, 2%, 14, 2%, ·, -13%[15.4 µM], -9
27: O=C(NCCc1ccc(Cl)cc1)C1=CC=CN2CCS(=O)(=O)N=C12
→ ·, ·, 3, -1%, 4.2%, -22%, -1
28: CN(Cc1ccc(OC(F)F)cc1)C(=O)c1cccc(S(=O)(=O)N2CCN(Cc3ccccc3)CC2)c1
→ ·, ·, ·, ?, ·, -20%[15.4 µM], 9
29: CCOc1cc(C(=O)NCCOC)cc(OCC)c1OCC
→ 5.6, 9%, -13, -15%, -0.9%, -18%, 22
30: CC(C)c1ccc(O)c(NC(=S)NC(=O)CCc2ccccc2)c1
→ 0.5, ?, 22, -1%, ·, 1%[15.4 µM], 0
31: Cc1nc(N2CCCC2)c2nnn(Cc3ccccc3Cl)c2n1
→ 2.3, 1%, -6, 0%, 1.6%, -21%, 4
32: COc1cccc(C2=NN(S(C)(=O)=O)C(c3cccs3)C2)c1 (stereo not given)
→ 13, 3%, 3, 1%, -9.0%, -5%, 44
33: COC(=O)c1cn(C(=O)c2ccc(Br)o2)c2ccccc12
→ 2.7, 11%, -7, -4%, -6.6%, 1%, 0
34: COc1ccc(-c2csc(NC(=O)C3=COCCO3)n2)cc1OC
→ ·, ·, -16, -1%, -1.8%, 11%[15.4 µM], -15
35: Cc1cc(C(F)(F)F)nn1CC(=O)N(C)c1ccccc1
→ -0.9, 19%, 11, 8%, ·, -16%, 3
36: COc1cc(/C=N/NC(=O)c2cccnc2)ccc1OCC(=O)Nc1ccc(C)cc1
→ 0.0, -9%, 19, 1%, ·, -8%, 11
37: S=C1CC2CCCC(C2)N1 (stereo not given)
→ ·, ·, ·, -12%, -3.8%, -1%, -3
38: Cc1cccc(-n2c(SCC(=O)NCC3CCCO3)nc3ccccc3c2=O)c1C (stereo not given)
→ ·, ·, -24, -7%, -3.2%, 6%, 29
39: CCOC(=O)c1ccc(NC(=O)C(CC)(CC)C(=O)OCC)cc1
→ -1.4, 13%, -25, -22%, 0.3%, -4%, 17
40: COc1ccccc1NS(=O)(=O)c1ccc(C(=O)NCCCN2CCOCC2)cc1
→ ·, ·, 5, 8%, ·, -21%[15.4 µM], -16
41: CC(C)(C)NC(=O)COc1ccc(CNCc2cccs2)cc1
→ 0.6, 20%, 1, 4%, 0.0%, -8%, 0
42: O=C(c1ccc(Cl)s1)N1CCOCC1
→ -3.2, 8%, -8, 4%, -1.3%, 5%, -11
43: Cc1cc(C)n(CC(O)COCc2ccccc2)n1 (stereo not given)
→ 1.0, 0%, 5, 0%, 0.7%, 6%, -2
44: Cc1ccc(OCC(=O)Oc2cccc(C)c2)cc1
→ ·, ·, ·, 12%, 0.6%, 12%, 7
45: N#CCc1ccc(NC(=O)c2ccc(CN3CCc4ccccc4C3)cc2)cc1
→ -0.8, 12%, -8, 3%, 17%, -2%, -5

Entries listed above printed as active in Sfp inh:
| # | Structure | Menin MLL FP FL | Sfp inh | gsp ag | TRPML1 inh |
| --- | --- | --- | --- | --- | --- |
| 16 | CCOC(=O)c1sc2nc(-c3ccco3)c3c(c2c1N)CC(C)(C)OC3 | 16 | 8.9µM* | ? | 1 |
| 18 | CC[C@H](C)/C=C(C)/C=C/C(=O)Cc1cc(O)c(C)c(O)c1C=O | ? | 89µM* | · | · |

(continued)
Values run as follows: Menin MLL FP FL, Sfp inh, TRPV1 PAM, gsp antag, ClpP mod, gsp ag, TRPML1 inh
46: CC(=O)c1ccc(N2CCN(C(=O)/C=C/c3ccc(S(=O)(=O)N4CCOCC4)cc3)CC2)cc1
→ 0.4, -1%, -25, ·, ·, -2%[15.4 µM], -6
47: CCCc1cc(=O)[nH]c2nnc(SCC(=O)Nc3nnc(CC)s3)n12
→ ·, ·, 10, 1%, -5.5%, -53%[inhibitor], -1
48: C[C@H](NC(=O)C1CC(=O)N(c2ccc3c(c2)OCO3)C1)C(=O)NC1CCCCC1 (stereo not given in full)
→ -4.7, 3%, 22, 10%, -3.3%, ?, -8
49: c1ccc(N2CCN(c3ncnc4sc5c(c34)CCC5)CC2)cc1
→ 2.6, -9%, -1, ?, -1.8%, -2%, 34
50: Cn1c(NCCCO)nc2ccccc21
→ 6.3, 11%, 5, -2%, -0.7%, ?, -12
51: O=C(Oc1ccc(N(Cc2cccs2)C2=NS(=O)(=O)c3ccccc32)cc1)c1ccccc1F
→ 3.8, -3%, -32, 11%, -8.9%, 9%, -17
52: Oc1ccccc1N=Cc1sc2ccccc2c1Cl
→ 2.9, 56µM*, 23, -2%, -8.6%, ?, -6
53: O=C(c1cnn(C(=O)c2ccco2)c1)c1ccccc1O
→ ·, ·, ·, 4%, 35%, 7%, -11
54: CCc1nc(Sc2nnnn2-c2ccccc2)c2c3c(sc2n1)CCCC3
→ 1.0, -2%, -1, -11%, ?, 9%[15.4 µM], 2
55: CC(=NNC(=O)COc1cccc(C)c1)c1cccnc1
→ ·, ·, ·, 13%, 2.0%, ?, 18
56: O=C(N/C(=C/c1ccco1)C(=O)N1CCOCC1)c1cccs1
→ -1.1, -9%, 2, -1%, -2.5%, 7%, 46
57: Cc1csc(SCCn2c(N3CCN(c4ccccc4)CC3)nc3c2c(=O)[nH]c(=O)n3C)n1
→ 1.2, 9%, 15, -12%, 2.0%, -10%, 3
58: O=C(CSCc1ccccc1Br)Nc1ccccc1
→ -0.5, 2%, -7, 5%, -0.4%, -1%, -6

Bioassay records: PubChem BioAssay, National Center for Advancing Translational Sciences (NCATS)
